Bioassay records: PubChem, National Center for Advancing Translational Sciences (NCATS)
Vaccinia mCherry = vaccinia inhibition (mCherry reporter); Vaccinia virus mCherry reporter infection, fluorescence; about a quarter of the inactives have no number; Potency, µM (top dose mostly 36.5 µM), for inactives: at the top dose activity change, negative = inhibition, hits mostly inhibitors; actives 0.63% (n = 310,000); active = well fitted inhibition curve with a large enough effect; inconclusive = small, poorly fitted or top-dose-only effect; inactive = no such curve, though single readings can be large or run the other way; tested in A549 cells; note: nearly all actives have a fitted effect of over 35% in size; inactives centre near -10
VACV Venus inh = vaccinia inhibition (Venus reporter). AID 720580. Potency, µM (titrated, usually from 36.5 µM), inactives show top-dose activity change, negative = inhibition, most hits filed as inhibitors. actives 0.46% (n = 330,000). Vaccinia virus Venus reporter expression, fluorescence; active means well fitted inhibition curve with a large enough effect; inconclusive means small, poorly fitted or top-dose-only effect; inactive means no such curve, though single readings can be large or run the other way; tested in A549 cells; note: nearly all actives have a fitted effect of over 30% in size; inactives centre near -10
* marks the source's active call; other numbers are inactive results; i = inactive; ? = inconclusive; · = not tested or not shown; & = joins results of further samples; [ ] = remark or other dose. % is set by controls: 0 for no effect and ±100 for the full control effect; potency is the fitted concentration of half-maximal effect.

canonical_smiles,Vaccinia mCherry,VACV Venus inh
COc1cc(-c2cc(C)c3cccc(OC)c3n2)cc2c1OCCN(C(=O)CC1NC(=O)c3ccccc31)C2 (stereo not drawn),i,0%
CC(C)N(C)C1=CC(=O)C(N(C)C(C)C)=CC1=O,i,-2%
CC(=O)N1CCCc2cc(S(=O)(=O)N3CCCC(C(=O)NC(C)C)C3)ccc21 (stereo not drawn),-15%,-1%
Cc1ccc(S(=O)(=O)N2CCCCC2)cc1NC(=O)COC(=O)C1CC1,-28%,-9%
CCn1cc(C(=O)N2CCN(c3ccccc3)CC2)c(=O)c2cc(S(=O)(=O)N3CCOCC3)ccc21,-12%,1%
CCN(CC)CCN(C)C(=O)c1ccc(-c2ccccc2)nc1N(C)C,-7%,-7%
CC12CC(NC(=O)N1c1cccc(C(=O)N3CCN(c4ccccn4)CC3)c1)c1ccccc1O2 (stereo not drawn),-4%,-11%
Cc1cc(C)c(C#N)c(Nc2cccc(Br)c2)n1,-1%,-8%
COc1ccccc1NC(=O)c1nc[nH]c1C(=O)Nc1ccccc1OC,-16%,-7%
CCOc1ccccc1N(C(=O)c1snc(C(N)=O)c1N)C(C(=O)NCCC(C)C)c1ccco1 (stereo not drawn),-15%,-15%
O=C(NC1CCCCC1)c1ccc(CSc2nc3ccncc3n2Cc2ccccc2F)cc1,-16%,-16%
O=C1OC(N2CCN(c3ccccn3)CC2)c2ccccc21 (stereo not drawn),0%,-1%
COCCNC(=O)c1onc(CSc2ccc(F)c(F)c2)c1C(=O)O,i,6%
CCN(CC)c1ccc(/C=C2\C(=O)c3ccc(C(=O)O)cc3C2=O)cc1,10%,27%
COc1ccc(CCNC(=O)c2ccc(CNS(=O)(=O)c3ccccc3)cc2)cc1OC,-12%&-22%,?
O=C(O)c1ccc(Sc2nnc3ccccn23)c([N+](=O)[O-])c1,-7%,-2%
COc1ccc(CN2CC[C@@H]3CN(C(C)=O)[C@H](c4ccccc4Br)C[C@@H]32)cc1,24%,-9%
CC1(C(=O)NS(=O)(=O)c2ccccc2Cl)CCN1C(=O)Cc1cccs1 (stereo not drawn),16%,2%
C[N+]1(CC(=O)OC2CCCCCCCCCCC2)CCCC1,-11%,-14%
CSc1cccc(NC(=O)C2CCN(C(=O)c3ccccc3C)CC2)c1,-16%,-5%
C[C@H]1C=C(C(=O)NC2CC2)O[C@@H](OCc2ccc(CO)cc2)C1,i,-3%
O=C(O)C1[C@H]2C(=O)N(C3CCCC3)C[C@]23C=C[C@H]1O3 (stereo partly drawn),-7%,-7%
Cc1cccc(NC(=O)C(C)Oc2ccccc2C)n1 (stereo not drawn),-10%,-3%
Cc1ccc(-c2nnn(CC(=O)Nc3ccc4nn(-c5ccccc5)nc4c3)n2)o1,-24%,-20%
COc1ccc(C(=O)N2CCCCCCC2)cc1OC1CCN(C(C)C)CC1,-14%,-21%
COc1ccc(NC(=O)C2CCCN(S(=O)(=O)c3c(C)[nH]c(=O)[nH]c3=O)C2)cc1 (stereo not drawn),6%,-1%&-11%
CC(C)(C)NC(=O)[C@@H]1CN(Cc2cccnc2)CCN1C[C@@H](O)C[C@@H](Cc1ccccc1)C(=O)N[C@H]1c2ccccc2C[C@H]1O,-8%,-6%
COc1cccc(NC(=O)CSc2nc(O)c(C)c(=O)n2-c2ccc(C)cc2)c1,-22%,-9%
O=C(O)c1cccc(NC(=O)c2ccccc2NC(=O)c2ccccc2F)c1,-15%,-18%
CCN1C(=O)/C(=C\c2cccc(OC(=O)c3ccco3)c2)SC1=S,-15%,1%
CCSc1nc2c([nH]c3ccccc32)c(=O)n1-c1ccc(OC)cc1,0%,11%
O=C(NC1CC1)C(Cc1ccccc1)NS(=O)(=O)c1ccccc1F (stereo not drawn),-3%,-7%
O=C(Nc1cccnc1)Nc1cc(Cl)cc(Cl)c1,-27%,?
COc1ccc(-c2c(C#N)c(SCC(=O)Nc3ccccc3C)nc(C)c2C(=O)Nc2ccccc2)cc1OC,-16%,-12%
C[C@H](CO)N1C[C@H](C)[C@@H](CN(C)C(=O)NC2CCCCC2)Oc2ccc(NS(=O)(=O)c3cn(C)cn3)cc2C1=O,i,-11%
CC(C)C(=O)NC(Nc1cccc2cccnc12)C(Cl)(Cl)Cl (stereo not drawn),-25%,-14%
O=C(Nc1nnc(-c2ccc(F)cc2)o1)c1cc(Cl)sc1Cl,-5%,-11%
COc1ccc(C2C3=C(CC(C)(C)CC3=O)Oc3ncn(CCCn4ccnc4)c(=N)c32)cc1 (stereo not drawn),i,-8%
CCn1c(=O)cc(N2CCC3(CC2)OCCO3)[nH]c1=O,i,4%
NNC(=O)c1cc2ccccc2cc1NS(=O)(=O)c1ccccc1,-3%,-17%
COc1ccc(N(CC(=O)NC2CC3CCC2C3)S(=O)(=O)c2ccc(C)cc2)cc1OC (stereo not drawn),11%,26%
CCN(C[C@H]1N[C@@](Cc2ccccc2)(C(=O)OC)[C@H]2C(=O)N(C)C(=O)[C@@H]12)C(=O)c1ccc(C)cc1,-3%,-12%
COc1ccc(C2=Nc3ccccc3N(C(=O)c3ccc4ncccc4c3)C2C(=O)NC2CCCC2)cc1 (stereo not drawn),?,-25%
CCOCC(=O)Nc1ccccc1C(=O)OCC,·,-16%
CCc1noc(C)c1C(=O)OCC(=O)Nc1c(F)cccc1F,i,-12%
c1coc(-c2nc3ccccn3c2Nc2ccc3c(c2)OCCO3)c1,-10%,-9%
OCCSc1ccc2nnc(-c3ccccc3)n2n1,-24%,-16%
COC(=O)C1=C(C)Nc2nnnn2C1c1ccco1 (stereo not drawn),·,-11%
O=C(Cc1ccc(F)cc1)Nc1nc(-c2ccc(F)cc2)cs1,6%,-4%
Cc1cccc(NC(=O)CN2CCN(C(=O)c3cnn(Cc4ccccc4)c3)CC2)c1C,-14%,-12%

4 entries from above, as labelled records:
c1coc(-c2nc3ccccn3c2Nc2ccc3c(c2)OCCO3)c1
  Vaccinia mCherry = -10%
  VACV Venus inh = -9%

CC(C)C(=O)NC(Nc1cccc2cccnc12)C(Cl)(Cl)Cl (stereo not drawn)
  Vaccinia mCherry = -25%
  VACV Venus inh = -14%

O=C(Nc1nnc(-c2ccc(F)cc2)o1)c1cc(Cl)sc1Cl
  Vaccinia mCherry = -5%
  VACV Venus inh = -11%

CCN(CC)c1ccc(/C=C2\C(=O)c3ccc(C(=O)O)cc3C2=O)cc1
  Vaccinia mCherry = 10%
  VACV Venus inh = 27%

New compounds follow:
canonical_smiles,Vaccinia mCherry,VACV Venus inh
COc1ccc(C(=O)NC(=O)CSc2nnc(-c3ccco3)n2-c2ccccc2)cc1,-3%,-3%
COc1cc2nc(-c3ccccc3C)oc(=O)c2cc1OC,8%,-13%
O=C(NCC(c1ccco1)N1CCN(c2ccc(F)cc2)CC1)C1CCCCC1 (stereo not drawn),i,-13%
Cc1ccc(NC(=O)CN2C(=O)NC3(CCCCCC3)C2=O)cc1Cl,-19%,?
C#CCOCCOCCOCCNc1nc(N2CCN(C(=O)Cn3cc(CCCN=C(N)N)nn3)CC2)nc(N2CCN(C(=O)[C@H](CCCCN)n3cc(CC(C)O)nn3)CC2)n1 (stereo partly drawn),i,-9%
CCOc1cc(C=O)ccc1O,-3%,-5%
NC(=O)c1ccc(NC(=O)C2CCCO2)cc1 (stereo not drawn),-12%,-7%
COc1cccc(CNC(=O)C2Cc3cc(S(=O)(=O)N4CCCCCC4)ccc3N2C(C)=O)c1 (stereo not drawn),-8%,0%
Cc1cccc(Cn2c(SCc3ccc(C(=O)NC4CCCCC4)cc3)nc3cccnc32)c1,?,-20%
CC1CCN(C(=O)N2c3ccccc3Sc3ccccc32)CC1,·,-5%

Other structures.
Second line of a record: Vaccinia mCherry	VACV Venus inh
CC(C)c1nnc(NC(=O)CS(=O)(=O)c2ccccc2)s1
  -10%	-14%
COc1ccc(-c2ccc3[nH]c4c(c3c2)CCN2C[C@H]3[C@H](C)ON(C)[C@H]3C[C@@H]42)cc1
  -23%	-30%
O=S(=O)(Nc1cccc2ccccc12)c1ccccc1F
  ?	-13%
CC(C)C[C@@H](CO)N1CCN(Cc2ccc(Br)cc2)CCC1=O
  0%	-9%&-22%
COP(=O)(OC)C(Nc1ccccn1)c1ccccc1 (stereo not drawn)
  i	2%
Cc1ccc2[nH]c3c(=O)n(N)c(C)nc3c2c1
  -14%	-26%
COc1ccccc1CNC(=O)CCc1c(C)nn(-c2ccc(N3CCCCC3)nn2)c1C
  -12%	-5%
O=C(Nc1sc2c(c1C(=O)N1CCCCC1)CCCC2)c1ccccc1Cl
  -11%	-12%
CC(NC(=O)C(C)N1C(=O)C2C3CC(C(Br)C3Br)C2C1=O)c1ccccc1 (stereo not drawn)
  -4%	-12%
COC(=O)C1CCN(C2CN(Cc3ccc(C)cc3)S(=O)(=O)C2)CC1 (stereo not drawn)
  40%	2%
O=C(Nc1ccc(N2CCOCC2)c2nonc12)C1CCCC1
  -19%	-19%
CCN(CC)C(=O)c1c(C)nc2ccccn12
  ·	-18%
Cc1ccc(S(=O)(=O)N2[C@@H](c3ccc(Br)cc3)C(C(=O)O)=C[C@H]2CC2CCCC2)cc1
  i	-13%
CCN(CC)S(=O)(=O)c1ccc(N2CCOCC2)c(NC(=O)c2ccc3ccccc3c2)c1
  -1%	-9%
NS(=O)(=O)c1ccc2nc(NC(=O)COc3ccc(Cl)cc3Cl)sc2c1
  5%	-3%
CCNC(=O)C1CCCN(Cc2ccc(OCc3ccccc3)cc2)CC1 (stereo not drawn)
  1%	1%
COc1ccc(N(C(=O)C2CCCCC2)C2C=CS(=O)(=O)C2)c(OC)c1 (stereo not drawn)
  -18%	-15%
O=C(Nc1cccc([N+](=O)[O-])c1)N(c1ccccc1)c1ccccc1
  -20%	-13%
Oc1ccc(/C=N\Nc2cc(N3CCOCC3)nc(N3CCOCC3)n2)c(O)c1
  ?	?
CCN(CC(=O)Nc1ccc(N2CCOCC2)cc1)C(=O)COc1ccccc1OC
  -11%	-6%
Cc1ccc(CCNC(=O)NCc2noc3ccccc23)cc1
  3%	5%
O=C(O)c1ccccc1SCc1cn2cc(Cl)ccc2n1
  i	-2%
CC(=O)Nc1ccc(S(=O)(=O)N2CCSc3ccccc32)cc1
  ?	?
Cc1ccccc1N1C(N)=NC(N)=NC1(C)C
  ·	-29%
COc1cc2c3c(c1)/C(=C1/SC(NC(C)=O)=NC1=O)C(=O)N3C(C)(C)C=C2C
  ?	-14%
COc1ccc([C@H]2CC(=O)C=C(c3ccc(SC)cc3)C2)cc1OC
  ?	-22%
Cc1ccc(-n2nc(C(=O)N(C)Cc3ccccc3)c3c4ccccc4n(C)c3c2=O)cc1
  1%	-1%
COc1ccc(C(=O)O)cc1S(N)(=O)=O
  i	-13%
CC1CCCC(CC(N)=O)CC1 (stereo not drawn)
  -17%	-7%
O=C1C=CC(=O)N1Cc1ccncc1
  -13%	-5%
O=C(O)c1ccccc1Nc1cccc(OCc2ccc3ccccc3n2)c1
  0%	-16%
CCOC(=O)N1CCC(NC(=O)CC(NS(=O)(=O)c2ccc(Cl)cc2)c2ccco2)CC1 (stereo not drawn)
  47%[activator]	0%
CC(=O)c1ccc(NC(=O)C(C)n2nc(-c3ccccc3)c3cc(Cl)ccc32)cc1 (stereo not drawn)
  9%	-12%
O=C(CN(CCc1ccccc1)C(=O)CNS(=O)(=O)c1ccccc1)NCc1ccco1
  -12%	-2%
O=Cc1ccc(Oc2cnccn2)cc1
  -6%	-10%
CCc1ccc(S(=O)(=O)Nc2cccc(C3OCCCO3)c2)cc1
  -4%	-7%
O=C1Nc2ccccc2-n2nnnc2C1N1CCN(c2cccc(C(F)(F)F)n2)CC1 (stereo not drawn)
  ?	?
CCn1c(CC(=O)Nc2ccccc2OC)nnc1SCC(=O)Nc1ccccc1F
  i	-4%
CCCN1C(=O)C(NC(=O)c2ccccc2OC)(C(F)(F)F)C(C(=O)OC)=C1C (stereo not drawn)
  -13%	-3%
CC(C)C(=O)Nc1ccc(C(=O)NNC(=S)NC(=O)c2ccco2)cc1
  i	-12%
COCCn1c(SCC(=O)Nc2cc(C)on2)nc2ccccc21
  -5%	-2%
Cc1cc(=O)[nH]c(SCC(=O)Nc2cc(S(=O)(=O)N3CCCC3)ccc2Cl)n1
  -8%	-1%
CCOc1ccc(N2C(=O)c3ccc(C(=O)OCc4c(C)noc4C)cc3C2=O)cc1
  -9%	2%
CN(C)c1ccc(C(=C2C=CC(=[N+](C)C)C=C2)c2c(O)c(S(=O)(=O)[O-])cc3cc(S(=O)(=O)O)ccc23)cc1
  ?	-11%
CN1CCN(c2ccccc2NC(=O)c2ccc(N3CCCC3)c([N+](=O)[O-])c2)CC1
  ?	?
CC1=C(C(=O)OCc2ccccc2)C(c2ccc(Cl)cc2Cl)NC(=O)N1CCCCCC(=O)O (stereo not drawn)
  5%	-10%
